FEN1 inhibitor – blocks human flap endonuclease 1; P39748; Recombinant FEN1 flap cleavage, fluorescence, 15 min; Potency, µM (top dose mostly 114 µM), without a hit: top-dose activity change, negative = inhibition, actives largely listed as inhibitors; 390,000 tested, 0.35% active; further: nearly all actives have a fitted effect of over 65% in size
Target sequence (P39748 whole entry, looked up): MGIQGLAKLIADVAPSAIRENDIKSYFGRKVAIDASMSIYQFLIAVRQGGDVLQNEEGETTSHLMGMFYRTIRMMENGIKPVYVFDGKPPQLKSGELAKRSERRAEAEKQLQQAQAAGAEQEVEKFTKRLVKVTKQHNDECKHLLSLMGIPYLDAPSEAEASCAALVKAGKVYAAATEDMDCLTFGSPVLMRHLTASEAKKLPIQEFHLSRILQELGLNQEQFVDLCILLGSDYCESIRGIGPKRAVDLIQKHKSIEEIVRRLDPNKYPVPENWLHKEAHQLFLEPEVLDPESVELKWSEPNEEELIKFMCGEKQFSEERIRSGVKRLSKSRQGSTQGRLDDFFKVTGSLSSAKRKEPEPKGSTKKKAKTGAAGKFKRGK
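Reaction started by adding substrate (50 nM final) to 10 nM enzyme after 15 min room-temperature compound preincubation. Reads at 0 and 15 min, with data normalized and fitted to a four-parameter Hill equation.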
N370S GC mod – N370S glucocerebrosidase modulation, Gaucher chaperone candidate | P04062 | N370S GC spleen homogenate, 4MU-glucoside fluorescence | Potency, µM (highest dose often 59.4 µM), inactives show top-dose activity change, negative = inhibition, most hits filed as inhibitors | 330,000 tested, 0.092% active | AID 2101;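 further: 0% = full enzyme activity and -100% = no enzyme basal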
The depositor's hits bear a star; ? = inconclusive; . = no result given; & = joins results of further samples; [ ] = another dose, or the depositor's remark. The call rests on the fitted dose curve; in most records, active means well fitted curve in the direction sought with a large enough effect; inconclusive means small, poorly fitted or top-dose-only effect, or another doubt; inactive means no such curve, though single readings can be large; an effect the other way counts as inactive or inconclusive. Unless noted, on the % scale 0 is the no-effect control and ±100 the full control effect; potency means the concentration at half of the fitted maximal effect.

SMILES	FEN1 inhibitor	N370S GC mod
CSc1nsc(SCC(=O)N2CCCCC2)n1	0%	2%
Cc1ccc(F)cc1NC(=O)CSc1n[nH]c(N)n1	0%	.
O=C(CSc1nnnn1-c1ccc(O)cc1)Nc1cccc(S(=O)(=O)N2CCCC2)c1	1%	?
O=C(CSc1n[nH]c(-c2ccccc2)n1)Nc1ccc(Br)cn1	8%	?
CSc1cccc(NS(=O)(=O)c2ccc3[nH]cc(C(=O)N4CCCC4)c(=O)c3c2)c1	1%	.
Cc1cccc(Cn2c(=O)n(CC3CCC(C(=O)NC(C)C)CC3)c(=O)c3sccc32)c1 (stereo not drawn)	-1%	.
CCOc1ccc(S(=O)(=O)N2Cc3ccccc3CC2C(=O)NCCCn2ccnc2)cc1 (stereo not drawn)	5%	-20%
O=C(CCCNC(=O)c1ccc(Cl)cc1)NCc1ccccc1Cl	-8%	-2%
Cn1c(=O)oc2cc(S(=O)(=O)N3CCCC(C(=O)NC4CCCc5ccccc54)C3)ccc21 (stereo not drawn)	-5%	1%
CC(=O)C1C(c2cccc([N+](=O)[O-])c2)C2C(C)=NN=C2CC1(C)O (stereo not drawn)	6%	4%
CC1CCCN(C2=C(Cl)C(=O)N(c3cccc(Cl)c3)C2=O)C1 (stereo not drawn)	-15%	13%
COCCCNC(=O)CNC(=S)N(Cc1ccc(F)cc1)C1CCCCC1	-1%	3%
O=C(CSc1cccc(C(F)(F)F)c1)NC(=O)c1ccccc1	-13%	3%
Cc1ccc(NS(=O)(=O)c2ccccc2[N+](=O)[O-])cc1S(=O)(=O)N1CCCCC1	-5%	.
O=C(CCCN1C(=O)c2ccccc2C1=O)NCCCn1ccnc1	-3%	-2%
N=c1nc(N)nc2n1NC(c1ccc(F)cc1)=CS2	-5%	3%
CC(=O)c1ccc(N2CCN(S(=O)(=O)c3ccc4c(c3)CC(C)N4C(=O)C3CC3)CC2)cc1 (stereo not drawn)	2%	-1%
COc1ccc2[nH]cc(CCNc3ncncc3-c3c(C)noc3C)c2c1	.	-2%
CCCCCC(=O)NN=C1CCN(Cc2ccccc2)CC1	-3%	-26%
O=C(COc1ccc(/C=C2/NC(=O)NC2=O)cc1)Nc1ccc(F)cc1	-6%	-2%
COc1ccc(-n2c(=S)[nH]c3cc(C(=O)NCCCN4CCOCC4)ccc3c2=O)cc1	-6%	6%
Cc1ccc(NC(=O)CN2C(=O)CCn3nc(-c4cccn4C)cc32)c(Cl)c1	7%	.
Cc1ccc(S(=O)(=O)CC(=O)c2ccc3c(c2)OCCO3)cc1	12%	20%
Cn1c(SCC(=O)NC2CCCCCC2)nnc1-c1cccs1	-3%	7%
Cc1ccc(NC(=O)CN(C)CC(=O)Nc2ccccc2C#N)cc1	1%	13%
SMILES	FEN1 inhibitor	N370S GC mod
CCCC(=O)Nc1ccc2c(c1)nc1n2CCN(CCOC)C1	-1%	-8%
CCOC(=O)CN(Cc1ccccc1)S(=O)(=O)c1ccc(NC(C)=O)cc1	0%	-4%
Cc1ccccc1/C=C1\OC(=O)c2ccccc21	-7%	5%
COc1ccc(NC(=S)NCCc2c[nH]c3ccccc23)c(OC)c1	-1%	-8%
Cc1ccc(OCc2ccccc2Br)c([N+](=O)[O-])n1	3%	-10%
CC1Cc2cc(/C(O)=C3\C(=O)C(=O)N(CCN(C)C)C3c3ccccc3F)ccc2O1 (stereo not drawn)	6%	3%
Cc1cccc(N2CN(Cc3ccco3)CNC2=S)c1C	0%	-5%
C/C(N)=C(/C#N)C(=O)COC(=O)c1ccc(C)c(S(=O)(=O)N2CCCCC2)c1	-3%	.
O=C(Nc1ccc2nc(SCC(=O)N3CCCC3)sc2c1)c1ccc(F)cc1	-1%	.
COCCCNC(=O)C1=CCN(S(=O)(=O)c2ccc(OC)cc2)CC1	-15%	-3%
CCn1ccc2cc(S(=O)(=O)N3CCC(C(=O)NCc4ccc(OC(C)C)cc4)CC3)ccc21	-11%	.
COc1ccc(C(=O)Nc2ccc(Br)cc2F)cc1S(=O)(=O)N1CCCC1	-12%	-1%
COc1cc(OC)cc(C(=O)NCC(=O)OCc2nc3ccccc3s2)c1	-6%	20%
Cc1nn(-c2cccc(C(=O)O)c2)c(C)c1Oc1ccccc1O	-8%	-7%[2.35 µM]
Cc1ccc(-c2nc3ncccc3o2)cc1NC(=O)C(C)(C)C	-5%	-2%
Cc1ccc(N(Cc2ccc(C(=O)NN=C3CCN(C)CC3)cc2)S(C)(=O)=O)cc1C	-11%	-6%
CC(=O)c1c(N2CCN(C(=O)c3ccco3)CC2)nc(=S)n(-c2ccccc2)c1C	-5%	6%
C=CCOC(=O)C1=C(C)N=C2SCCC(=O)N2C1c1cccs1 (stereo not drawn)	-3%	0%
CCOc1ccc(NC(=S)N(CCOC)C2CCN(C(C)C)CC2)cc1	20%	-16%
C[C@@H]1COC(=O)[C@H](CC(=O)OC(C)(C)C)C/C=C\C[C@H](CC(=O)N(CCO)Cc2ccccc2)C(=O)N1	12%	.
O=C(Cn1c(NCCO)nc2ccccc21)c1ccc(Cl)cc1Cl	5%	-26%
Cc1nc(N2CCN(C(=O)c3ccco3)CC2)c2c3c(sc2n1)CCCC3	-4%	8%
Cc1ccc(NC(=O)Cn2nnc(C(=O)NCCc3ccccc3)c2N)c(C)c1	-6%	-10%
CCC(=O)N1CCc2cc(S(=O)(=O)CCC(=O)Nc3cccc(F)c3)ccc21	0%	5%
O=C(CSc1nccc(=O)[nH]1)N1CCCc2ccccc21	1%	20%
SMILES	FEN1 inhibitor	N370S GC mod
COc1ccc(C(=O)OCC(=O)NC(=O)NC(C)C)cc1OC	18%	-5%
Cc1nc(C)c(-c2ccc(SCC(=O)Nc3ccccc3F)nn2)s1	13%	.
CNC(=O)NC(=O)C(C)OC(=O)c1cc2c(s1)CCCCC2 (stereo not drawn)	-8%	-3%
O=C(NCC1CCCO1)c1cnn2c(C(F)F)cc(C3CC3)nc12 (stereo not drawn)	17%	4%
Cc1ccc(Cl)cc1NC(=O)CCCn1c(=O)c2cccn2c2cccnc21	19%	.
COCCSc1ccccc1C(=O)Nc1nccs1	0%	5%
O=C(Nc1cccc(N2C(=O)C=CC2=O)c1)c1cccs1	.	-6%
COc1ccc(-c2nsc(NC(=O)COc3ccccc3OC)n2)cc1	-2%	.
CC(=O)Nc1ccc(NC(=O)CCn2nnc3ccccc32)cc1	-12%	8%
O=C(COC(=O)/C=C/c1ccc(Cl)cc1)NC1CC1	0%	.
C[n+]1ccccc1C1CCCC/C1=N\NC(N)=S (stereo not drawn)	17%	5%
CC(=O)c1cnc(N(C)C)s1	15%	2%
COc1cccc(Nc2ncc3ncc(=O)n(C)c3n2)c1	.	-4%
C=CCNC(=S)NN=C1CCC(c2ccccc2)CC1 (stereo not drawn)	-15%	-13%
COc1ccc(C2=NS(=O)(=O)N(C)C(C(=O)N(C)Cc3ccccc3)=C2)cc1	-1%	2%
COc1ccc(/C=N/NC(=O)CCn2cnc3ccccc32)cc1	6%	0%
Cn1ccc2c(OCC(=O)NCc3ccccc3)cccc2c1=O	-17%	.
COc1cccc(-n2nnc3c(=O)n(CC(=O)N4CCC(C)CC4)cnc32)c1	-16%	-3%
CCOc1ccc(-n2c(C)cc(/C=N\NC(=O)CC(=O)NC3CCCCC3)c2C)cc1	-1%	-4%
CCOC(=O)C1CCCN(C(=O)Nc2c(-c3ccccc3)noc2C)C1 (stereo not drawn)	10%	3%
CN1CCN(CCCNC(=O)Cn2c(-c3cccs3)cc3ccccc32)CC1	-2%	.
CCCN1CCN(CCNC(=O)Nc2cc(C)ccc2C)CC1	-14%	-1%
CC(=O)Nc1ccc(C2(c3ccc(NC(C)=O)cc3)C(=O)Nc3ccccc32)cc1	4%	0%
CC(C)(C)c1ccc(OCC(=O)Nc2ccc(S(=O)(=O)Nc3ncccn3)cc2)cc1	16%	.
CCOc1ccc(C(=O)N2CCCCCC2)cc1	0%	-7%

Grouped by structure: the entries above containing fluorine.
SMILES	FEN1 inhibitor	N370S GC mod
Cc1ccc(F)cc1NC(=O)CSc1n[nH]c(N)n1	0%	.
COCCCNC(=O)CNC(=S)N(Cc1ccc(F)cc1)C1CCCCC1	-1%	3%
O=C(CSc1cccc(C(F)(F)F)c1)NC(=O)c1ccccc1	-13%	3%
N=c1nc(N)nc2n1NC(c1ccc(F)cc1)=CS2	-5%	3%
O=C(COc1ccc(/C=C2/NC(=O)NC2=O)cc1)Nc1ccc(F)cc1	-6%	-2%
CC1Cc2cc(/C(O)=C3\C(=O)C(=O)N(CCN(C)C)C3c3ccccc3F)ccc2O1 (stereo not drawn)	6%	3%
O=C(Nc1ccc2nc(SCC(=O)N3CCCC3)sc2c1)c1ccc(F)cc1	-1%	.
COc1ccc(C(=O)Nc2ccc(Br)cc2F)cc1S(=O)(=O)N1CCCC1	-12%	-1%
CCC(=O)N1CCc2cc(S(=O)(=O)CCC(=O)Nc3cccc(F)c3)ccc21	0%	5%
Cc1nc(C)c(-c2ccc(SCC(=O)Nc3ccccc3F)nn2)s1	13%	.
O=C(NCC1CCCO1)c1cnn2c(C(F)F)cc(C3CC3)nc12 (stereo not drawn)	17%	4%

The list continues:
SMILES	FEN1 inhibitor	N370S GC mod
COc1cccc(-c2ccnc3[nH]n(-c4ccccc4)c(=O)c23)c1	29%&-10%	-2%
CC(NC(=O)[C@H](C)NC(=O)C1CC(=O)N(c2ccc3c(c2)OCO3)C1)c1ccccc1 (stereo partly drawn)	-12%	-1%
c1ccc(-c2nc(-c3ccco3)cs2)nc1	-16%	8%[2.35 µM]
O=C(COC(=O)c1ccccn1)NC12CC3CC(CC(C3)C1)C2	-5%	9%
COC(=O)c1ccc(NC(=O)CCc2c(C)nc3c(c(C)nn3C(C)(C)C)c2C)cc1	-23%	.
C(=N\c1nc2ccccc2n1CCN1CCCCC1)/c1cccs1	2%	-6%
O=C(Oc1ccc(Cl)cc1N1C(=O)CCC1=O)c1ccco1	-3%	4%
COc1ccc(OCCCn2cc(/C=C3/C(=N)N4C=C(C)SC4=NC3=O)c3ccccc32)cc1	-4%	-11%
C[N+](C)(C)CC/C=C1/c2ccccc2CSc2ccccc21	6%	21%
Cc1cccc(C)c1NC(=O)CS(=O)CC(=O)NC1CCN(Cc2ccccc2)CC1 (stereo not drawn)	1%	0%
CCNc1nc(NCC)nc(Oc2ccc(OCc3ccccc3)nn2)n1	.	-4%
CCCCC1CC1C(=O)Nc1ccc(OC)c(OC)c1 (stereo not drawn)	-3%	5%
CCN(CC)c1ccc(C(=O)OCC(=O)Nc2ccccc2-c2ccccc2)cc1	-20%	?
CCN(CC)c1ccc(NC(=O)CNCc2ccccc2Cl)c(C)c1	-3%	5%
CN(C)C(=O)c1ccc(-c2ccc3ncnc(N(C)Cc4ccco4)c3c2)cc1	.	-12%
Cc1ccc(N(CC(=O)NC2CCCCC2)S(=O)(=O)c2c(C)noc2C)cc1	23%	0%
CCC1SC2=NC(C)=C(C(=O)OCCOC)C(c3ccc(C(=O)OC)cc3)N2C1=O (stereo not drawn)	-3%	-7%
O=C(Oc1ccccc1)n1c(=S)oc2ccccc21	-4%	0%
CCOc1ccccc1NC(=O)C(C)SCc1ccccc1 (stereo not drawn)	-17%	-3%
O=C(CCNS(=O)(=O)c1ccccc1)NNC(=O)COc1ccccc1F	-12%	.
COc1ccc([N+](=O)[O-])cc1NC(=O)c1ccc(N2C(=O)CCC2=O)cc1	-17%	-3%
O=C(CSC(=S)N1CCCC1)N(Cc1nnc(-c2ccccc2Cl)o1)C1CC1	0%	.
O=C1CC(NNc2ccccc2)C(=O)N1c1ccccc1 (stereo not drawn)	5%	-10%
COc1ccc(C(=O)n2nc(-c3ccco3)nc2N)cc1OC	-1%	8%
O=C(Cn1ncc(Cl)c(Cl)c1=O)N1CCOCC1	-2%	7%
SMILES	FEN1 inhibitor	N370S GC mod
O=C(O)c1cccc(Nc2nc(-c3ccc([N+](=O)[O-])cc3)nc3ccccc23)c1	3%	-10%
COC(=O)Cn1c(SCc2ccccc2)nc2ccccc21	-2%	-16%
OC(C[n+]1ccccc1)c1ccccc1 (stereo not drawn)	4%	3%
COc1ccccc1CNC(=O)CCCN1C(=O)CCn2nc(-c3cn(C)c4ccccc34)cc21	6%	.
CC(C)c1ccc(C(O)Cc2nc3ccccc3n2C)cc1 (stereo not drawn)	-8%	-5%
COc1ccc(CN2C[C@]3(CO)O[C@@H](CO)C[C@@H]3S2(=O)=O)cc1	-15%	.
CCOC(=O)c1cccc(NC(=O)c2cncc(Br)c2)c1	-5%	0%
CC(C)(C)C(=O)OCc1nc(-c2ccc(O)c(O)c2)cs1	-13%	-4%
COc1cccc(CN(CC(=O)NC2CCCC2)C(=O)c2csnn2)c1	5%	4%
CC(=O)Nc1ccc(S(=O)(=O)N/N=C/c2cccnc2)cc1	0%	-18%
CSc1ccc(S(=O)(=O)N2CCC(C(=O)Nc3ccc(NC(C)=O)cc3)CC2)cc1	-3%	-4%
COc1ccc(C(=O)Nc2cc3c(cc2C#N)OCO3)cc1S(=O)(=O)NCc1ccco1	-2%	3%
COc1cc(NS(C)(=O)=O)ccc1Cc1c2ccccc2nc2ccccc12	.	1%
CCOc1ccc2[nH]c3c(NCCN(C)C)ncnc3c2c1	.	-6%
COc1ccc(C(=O)N2CCN(C)C(C)C2)cc1OC1CCN(C(C)=O)CC1 (stereo not drawn)	-3%	3%
COc1ccc(-n2nc3c(N4CCC(C(=O)NCCc5ccco5)CC4)nnc(C)c3c2C)cc1	-20%	1%
O=C(N/C(=C/c1ccc(Br)cc1)C(=O)N1CCOCC1)c1ccco1	-1%	-1%
c1c2c(cc3sc(N4CCCCC4)nc13)OCCO2	-12%	15%
Cc1cc(C)n2c(SCC(C)C)nnc2n1	11%	-5%
Cc1cc(C)c(S(C)(=O)=O)c(Oc2cccc(C(F)(F)F)c2)n1	-2%	-1%

Bioassay records deposited in PubChem by National Center for Advancing Translational Sciences (NCATS).

A portion of the library, and most or all hits are left out here.
